Compound activity as filed in PubChem BioAssay.
Sa growth inh: blocks Staphylococcus aureus growth | relative growth, % (no concentration beside the values) | S. aureus RN4220 growth, OD600, 20 h, 42 °C; active compounds read low | 170,000 tested, 0.53% active;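 active = growth at 42 °C up to 50% and 20 or more points under that at 30 °C, or under 10% at both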;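 also: 300 nL library stock went into each well; scaled to the means of positive and negative controls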
HCMV NEC inh: disrupts HCMV UL50-UL53 complex binding; HTRF UL50-UL53 interaction, normalized percent inhibition; inhibition, % (no concentration beside the values); 190,000 tested, 0.15% active; AID 1918969;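 active = both replicates at 50% or more, plus weaker picks with an unusually low signal ratio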;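 also: stock transfer was 100 nL into about 20 µL; 0% = negative control wells and 100% = wells with untagged competitor protein; inactives centre near -12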
GIV-Gai inh: GIV-Galpha-i interaction inhibition | percent of control (FP), % (test concentration not listed) | Galpha-i3/FITC-GIV peptide fluorescence polarization, 90 min; active compounds read low; scaled: aluminum fluoride 0%, vehicle 100% | P08753 | 210,000 tested, 0.42% active;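 active = replicate mean at 85% of control or lower, very high polarization wells dropped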;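 also: lower values mean more displacement of the GIV peptide from Galpha-i3; wells of about 15 µL received 100 nL stock; the first replicate is given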
Target sequence (P08753 whole entry, looked up): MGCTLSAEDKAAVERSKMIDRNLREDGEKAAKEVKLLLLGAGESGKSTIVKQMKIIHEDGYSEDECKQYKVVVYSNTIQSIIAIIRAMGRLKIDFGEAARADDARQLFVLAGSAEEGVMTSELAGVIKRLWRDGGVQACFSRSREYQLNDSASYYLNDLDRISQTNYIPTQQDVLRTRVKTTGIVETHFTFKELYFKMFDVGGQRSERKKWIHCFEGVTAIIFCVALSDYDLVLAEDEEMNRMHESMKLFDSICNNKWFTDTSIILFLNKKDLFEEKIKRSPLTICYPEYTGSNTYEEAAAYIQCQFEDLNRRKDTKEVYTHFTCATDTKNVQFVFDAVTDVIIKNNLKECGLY
Sa growth inh second temp: second read-out of Sa growth inh, no call of its own (marks repeat the call); relative growth, %; measured here: growth at 30 °C;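 optical density after 20 h as mean of two plates; 100% = untreated growth and lower means inhibition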
* marks the source's active call; other numbers are inactive results; / = no result given. An excerpt (hit frequency here may not be typical).

Assay codes – A = Sa growth inh; B = Sa growth inh second temp; C = HCMV NEC inh; D = GIV-Gai inh
1: CC(C)c1ccc(CO)cc1
  A = 97.5 | B = 95.6 | C = 5.5 | D = /

2: CCCCCCC1C(=O)NC(=S)NC1=O
  A = / | B = / | C = -18.1 | D = 103.6

3: S=P12CN3CN(CN(C3)C1)C2
  A = 101.5 | B = 86.9 | C = -22.8 | D = /

4: Nc1ccc([As](=O)(O)O)cc1
  A = 93.4 | B = 86.8 | C = -41.4 | D = /

5: Oc1ccc(C(c2ccc(O)cc2)(C(F)(F)F)C(F)(F)F)cc1
  A = 68.7 | B = 57.1 | C = -10.3 | D = /

6: CCN1C(=O)C(=Cc2cccn2C)C(=O)N(CC)C1=S
  A = 154.6 | B = 77.5 | C = -9.4 | D = 112.0

7: CC1(C)CN=C(Nc2ccc(F)c(F)c2)S1
  A = 93.5 | B = 94.0 | C = -28.1 | D = 97.9

8: C=C(C)CN1CC[C@]23c4c5ccc(O)c4O[C@H]2c2[nH]c4ccccc4c2C[C@@]3(O)C1C5
  A = 89.0 | B = 73.5 | C = 0.1 | D = /

9: CC1(C)CSC(Nc2ccc(F)cc2)=N1
  A = 95.3 | B = 88.1 | C = -10.2 | D = 101.5

10: CCC(CC)C(=O)NC1CCSC1=O (centres undefined)
  A = 108.0 | B = 89.2 | C = -6.5 | D = 103.0

11: CN(N=O)c1ccc(O)c(O)c1
  A = / | B = / | C = 101.6* | D = 37.0*

12: CCC(=O)N1C(C(=O)O)CSC12CCN(C)CC2 (centres undefined)
  A = 81.0 | B = 95.2 | C = -6.8 | D = 112.2

13: CCCC1=C(C(=O)OCC)C2(C(=O)N1)C(C(=O)OC(C)C)=C(N)Oc1ccccc12 (centres undefined)
  A = 107.0 | B = 102.2 | C = -2.4 | D = 104.8

14: CCOc1ccc(N2C(=O)NC(=O)/C(=C/c3cc(Cl)c(O)c(OC)c3)C2=O)cc1
  A = / | B = / | C = -4.2 | D = 107.4

15: COc1ccc(N2CCN(Cc3nc4ccccc4[nH]3)CC2)cc1
  A = 104.0 | B = 90.3 | C = -21.4 | D = /

Next part; the last 2 above are carried over.
Assay codes – A = Sa growth inh; B = Sa growth inh second temp; C = HCMV NEC inh; D = GIV-Gai inh
14: CCOc1ccc(N2C(=O)NC(=O)/C(=C/c3cc(Cl)c(O)c(OC)c3)C2=O)cc1
  A = / | B = / | C = -4.2 | D = 107.4

15: COc1ccc(N2CCN(Cc3nc4ccccc4[nH]3)CC2)cc1
  A = 104.0 | B = 90.3 | C = -21.4 | D = /

16: Cc1ccc2c(c1)C1CN(C)CCC1N2C(=O)c1ccccc1 (centres undefined)
  A = 113.7 | B = 99.3 | C = 12.0 | D = /

17: NC(=O)COc1c(F)cc(SCCNS(=O)(=O)c2ccccc2)cc1F
  A = / | B = / | C = 2.8 | D = 104.7

18: Nc1c(Br)cc(Br)cc1Br
  A = 112.9 | B = 107.9 | C = 4.1 | D = 101.7

19: N#CC(C#N)=Cc1ccc(-c2ccccc2)o1
  A = 96.4 | B = 80.6 | C = -18.9 | D = -0.4*

20: COc1ccc2c(c1)c(C(=O)Nc1nccs1)c(C)n2C1CCCCC1
  A = 105.0 | B = 98.3 | C = -16.1 | D = /

21: CCN1CCN(c2ccc(N)cc2C)CC1
  A = 92.4 | B = 95.8 | C = -26.2 | D = /

22: CCC(C(=O)Nc1ccccc1F)N1C(=O)CN=C(c2ccccc2)c2ccccc21 (centres undefined)
  A = 98.0 | B = 91.9 | C = -24.1 | D = 103.7

23: NC(Cc1ccccc1)c1ccccc1 (centres undefined)
  A = 110.5 | B = 86.0 | C = -4.8 | D = /

24: N#CC(C#N)=Cc1cc(Br)cs1
  A = 115.4 | B = 69.7 | C = -1.1 | D = 103.0

25: CCC1(CC)OC(c2cccnc2)Nc2ccccc21 (centres undefined)
  A = 99.7 | B = 81.3 | C = -7.9 | D = /

26: CCc1ccc(-n2nc(C)c3c2NC(=O)CSC3c2ccc(OC)cc2OC)cc1 (centres undefined)
  A = 103.8 | B = 84.9 | C = 6.6 | D = 97.2

27: CN(C)C(=O)Oc1ccnc2cc(Cl)ccc12
  A = 91.4 | B = 71.3 | C = -21.3 | D = 99.1

28: Fc1cccc(Cl)c1CN1CCNCC1
  A = 98.4 | B = 96.4 | C = -13.5 | D = /

29: c1ccc(CCNCc2ccc3nccnc3c2)cc1
  A = / | B = / | C = -43.4 | D = 101.0

30: Cc1ccc(/C=C2/C(=O)C3CCN2CC3)cc1
  A = 100.6 | B = 106.7 | C = 4.8 | D = 104.5

Next structures.
Assay codes – A = Sa growth inh; B = Sa growth inh second temp; C = HCMV NEC inh; D = GIV-Gai inh
31: CCCC(C)c1c(O)n(CC)c(=S)[nH]c1=O (centres undefined)
  A = 124.3 | B = 89.8 | C = -5.7 | D = 102.7

32: Cc1ccc(-n2cc(C3=CCN(CC(=O)Nc4cccnc4)CC3)cn2)cc1
  A = / | B = / | C = -21.6 | D = 104.4

33: Cn1c(O)c(C(=O)c2ccccc2)c(=O)n(C)c1=O
  A = 99.9 | B = 84.2 | C = -7.8 | D = 98.8

34: CCc1ccc(C(=O)C23CN4CN(CN(C4)C2)C3)cc1
  A = 95.5 | B = 88.8 | C = -22.4 | D = 96.0

35: Cc1cccc(-n2c(CSc3nc4ccccc4[nH]3)nc3ccccc3c2=O)c1C
  A = 126.3 | B = 89.1 | C = -5.7 | D = /

36: Fc1ccccc1CNC1CN2CCC1CC2 (centres undefined)
  A = 94.8 | B = 90.5 | C = -21.4 | D = 98.4

37: O=C1NC(=O)N(c2ccccc2)C(=O)/C1=C/c1ccco1
  A = 98.5 | B = 101.4 | C = / | D = 102.4

38: CCOC(=O)C(O)(c1ccc(N(CC)C(=O)OC)cc1)C(F)(F)F (centres undefined)
  A = 105.2 | B = 90.4 | C = -5.9 | D = 103.5

39: N#CCCN1CCCC2(CCCC2)C1
  A = 111.7 | B = 91.0 | C = -3.1 | D = /

40: CN[C@@H]1C2CN3CCC(O2)[C@@H]13 (some centres undefined)
  A = 97.8 | B = 91.7 | C = -26.5 | D = 103.8

41: CCNc1ccc(P(=S)(N(C)C)N(C)C)cc1
  A = 96.8 | B = 91.1 | C = -23.6 | D = /

42: CNC(=O)O/N=C/c1nn(C(=O)C(C)(C)C)cc1Br
  A = 99.5 | B = 87.1 | C = 1.8 | D = 114.3

43: Cc1oc(-c2cccs2)nc1CN1C(=O)CN=C(c2ccccc2)c2ccccc21
  A = 88.7 | B = 60.7 | C = / | D = 101.7

44: O=S1(=O)CC2(N3CCOCC3)CCCCCCC21 (centres undefined)
  A = 106.0 | B = 84.9 | C = / | D = 101.8

45: CN(C)C(=O)Oc1cccc(NC(=O)c2cc(Cl)cc(Cl)c2)c1
  A = 102.3 | B = 85.9 | C = -2.1 | D = 96.6

Additional results
Assay codes – A = Sa growth inh; B = Sa growth inh second temp; C = HCMV NEC inh; D = GIV-Gai inh
46: CCOC(=O)[C@]1(C#N)[C@@H]2C=CC(C(N)=O)=CN2[C@@H](C(N)=O)[C@@H]1c1ccc(Cl)cc1
  A = 66.8 | B = 91.5 | C = -45.8 | D = /

47: C=CCOC(=O)C1=C(C)NC(=O)C12C(C(=O)OC)=C(N)Oc1ccccc12 (centres undefined)
  A = 94.6 | B = 76.7 | C = -15.1 | D = 103.2

48: COc1cccc([C@@H]2CCN(CC(=O)Nc3cc(Cl)ccc3OC)C[C@H]2O)c1
  A = 91.2 | B = 87.2 | C = -12.3 | D = 99.9

49: CC1(C)CC(=O)C(C=NCCN2CCN(C(=O)Cc3ccccc3)CC2)=C(O)C1
  A = 90.4 | B = 85.2 | C = -26.4 | D = 103.1

50: CN(C(=O)c1ccco1)c1ccc(Cl)cc1C(=O)c1ccccc1
  A = 98.6 | B = 93.4 | C = 0.3 | D = 106.0

51: N#C/C(=C\c1ccccc1)C(=O)O
  A = 93.6 | B = 84.6 | C = -23.6 | D = /

Of the compounds above, these have a carbonyl joined to an NH by a bond outside any ring.
Assay codes – A = Sa growth inh; B = Sa growth inh second temp; C = HCMV NEC inh; D = GIV-Gai inh
10: CCC(CC)C(=O)NC1CCSC1=O (centres undefined)
  A = 108.0 | B = 89.2 | C = -6.5 | D = 103.0

17: NC(=O)COc1c(F)cc(SCCNS(=O)(=O)c2ccccc2)cc1F
  A = / | B = / | C = 2.8 | D = 104.7

20: COc1ccc2c(c1)c(C(=O)Nc1nccs1)c(C)n2C1CCCCC1
  A = 105.0 | B = 98.3 | C = -16.1 | D = /

22: CCC(C(=O)Nc1ccccc1F)N1C(=O)CN=C(c2ccccc2)c2ccccc21 (centres undefined)
  A = 98.0 | B = 91.9 | C = -24.1 | D = 103.7

32: Cc1ccc(-n2cc(C3=CCN(CC(=O)Nc4cccnc4)CC3)cn2)cc1
  A = / | B = / | C = -21.6 | D = 104.4

42: CNC(=O)O/N=C/c1nn(C(=O)C(C)(C)C)cc1Br
  A = 99.5 | B = 87.1 | C = 1.8 | D = 114.3

45: CN(C)C(=O)Oc1cccc(NC(=O)c2cc(Cl)cc(Cl)c2)c1
  A = 102.3 | B = 85.9 | C = -2.1 | D = 96.6

46: CCOC(=O)[C@]1(C#N)[C@@H]2C=CC(C(N)=O)=CN2[C@@H](C(N)=O)[C@@H]1c1ccc(Cl)cc1
  A = 66.8 | B = 91.5 | C = -45.8 | D = /

48: COc1cccc([C@@H]2CCN(CC(=O)Nc3cc(Cl)ccc3OC)C[C@H]2O)c1
  A = 91.2 | B = 87.2 | C = -12.3 | D = 99.9
